Assay outcomes: PubChem, National Center for Advancing Translational Sciences (NCATS)
MARV entry inh = inhibitors of Marburg virus binding or cell entry; 1.8% of 300,000 active; Potency, µM (highest dose often 37.8 µM), for inactives: at the highest dose activity change, negative = inhibition, hits mostly inhibitors; Marburg virus pseudotyped entry inhibition, cell reporter; control for the full effect not named in the record; about a third of the inactives were read at about 46 µM; active = well fitted inhibition curve with a large enough effect; inconclusive = small, poorly fitted or top-dose-only effect, or effect the other way; inactive = flat fitted curve, though single readings scatter; tested in HEK293 cells; about a fifth of its hits are not listed in these tables; further: on the % scale 0 is the no-effect control and ±100 the full control effect; luciferase read-out
Cruzain noTriton = cruzain (T. cruzi) inhibition without detergent. P25779. 2.3% of 200,000 active. AID 1476. Potency, µM, for inactives: max response, negative = inhibition, actives largely listed as inhibitors. purified cruzain, Z-FR-AMC fluorescence, no detergent;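 further: plate controls were enzyme without inhibitor for no effect and buffer without enzyme for full effect; nearly all actives have a fitted effect of over 40% in size; top concentration of the series not given in the record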
Target sequence (P25779 123-467 limits assumed): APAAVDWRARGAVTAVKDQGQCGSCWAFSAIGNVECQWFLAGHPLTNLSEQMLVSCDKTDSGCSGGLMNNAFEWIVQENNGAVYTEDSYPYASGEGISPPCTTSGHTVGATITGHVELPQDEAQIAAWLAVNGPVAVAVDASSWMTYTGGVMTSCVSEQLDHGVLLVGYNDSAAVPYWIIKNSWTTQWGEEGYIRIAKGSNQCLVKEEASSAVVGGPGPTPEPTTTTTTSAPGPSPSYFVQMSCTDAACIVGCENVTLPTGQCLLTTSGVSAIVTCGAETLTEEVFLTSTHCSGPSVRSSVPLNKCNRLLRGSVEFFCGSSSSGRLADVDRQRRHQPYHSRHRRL
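Purified cruzain at 1.5 nM, pre-incubated 15 min with compound at room temperature in 100 mM sodium acetate pH 5.5, 5 mM DTT, 0.00005% Triton X-100. Reaction started with 2 uM Z-FR-AMC; AMC fluorescence increase over 60 s gives rate.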
LASV entry inh = blocks Lassa virus binding to or entry into cells | 1.2% of 300,000 active | Lassa virus pseudotype entry inhibition, cell reporter; control for the full effect not named in the record | Potency, µM (top dose mostly 37.9 µM), inactives show at the top dose activity change, negative = inhibition, most hits filed as inhibitors; active means well fitted inhibition curve with a large enough effect; inconclusive means small, poorly fitted or top-dose-only effect, or effect the other way; inactive means flat fitted curve, though single readings scatter; tested in HEK293 cells; further: on the % scale 0 is the no-effect control and ±100 the full control effect; nearly all actives have a fitted effect of over 50% in size; luciferase read-out
SARS PLpro yeast = inhibitors of SARS-CoV papain-like protease in yeast; S. cerevisiae expressing SARS-CoV PLpro, growth rescue; control for the full effect not named in the record; Potency, µM (top dose mostly 32.9 µM), for inactives: at the highest dose activity, positive = growth rescue; 0.19% of 330,000 active; AID 485353; active means well fitted rising curve with a large enough effect; inconclusive means small, poorly fitted or top-dose-only effect; inactive means no such curve, though single readings can be large or run the other way; further: 0% is about no effect; nearly all actives have a fitted effect of over 55% in size; growth read by luminescence after 48 h
RE007 growth inh = less growth of the S. pombe RE007 Vpr strain. 0.21% of 360,000 active. Potency, µM (titrated, usually from 92.2 µM), without a hit: top-dose activity change, negative = less growth. AID 651644. S. pombe RE007 Vpr strain, BacTiter-Glo ATP luminescence, 24 h; control for the full effect not named in the record; active = well fitted falling curve with a large enough effect; inconclusive = small, poorly fitted or top-dose-only effect; inactive = no such curve, though single readings can be large or run the other way;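 further: on the % scale 0 is the no-effect control and ±100 the full control effect; nearly all actives have a fitted effect of over 50% in size; the assay follows cell death caused by Vpr and the record does not say whether a fall means rescue or toxicity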
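Fission yeast RE007 carrying one integrated HIV-1 vpr copy, seeded at OD 0.01 in PMG+AL medium with 23 nL pinned compound. Grown 24 h at 30 degrees; viability read by BacTiter-Glo luminescence after 5 min.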
Cruzain Triton = blocks cruzain activity in presence of Triton detergent | purified cruzain, Z-FR-AMC fluorescence, 0.01% Triton | Potency, µM, for inactives: max response, negative = inhibition, most hits filed as inhibitors | 0.43% of 200,000 active | AID 1478;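 further: plate controls were neutral wells for no effect and buffer without enzyme for full effect; nearly all actives have a fitted effect of over 40% in size; top concentration of the series not given in the record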
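Detergent-containing arm of a paired screen for aggregation-based inhibition: 0.01% Triton X-100 present. Cruzain at 1.5 nM cleaved 2 uM Z-FR-AMC at pH 5.5 with 5 mM DTT; AMC fluorescence gain over 60 s measured activity.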
StopGo reporter = lowers the luciferase signal of an FMDV 2A StopGo reporter; 1.2% of 410,000 active; Potency, µM (highest dose often 57.9 µM), for the others: at the highest dose signal change, negative = less light; human cells with a luciferase reporter of 2A StopGo recoding; control for the full effect not named in the record; AID 1159524; active = well fitted falling curve with a large enough effect; inconclusive = small, poorly fitted or top-dose-only effect; inactive = no such curve, though single readings can be large or run the other way; tested in HEK293T cells; further: on the % scale 0 is the no-effect control and ±100 the full control effect; nearly all actives have a fitted effect of over 45% in size; luciferase light after 4 h
NS1 function inh = inhibitors of influenza NS1 protein function; Potency, µM (doses to about 46.1 µM), for the others: top-dose activity, positive = more growth; 0.4% of 270,000 active; AID 2326; S. cerevisiae slowed by influenza A NS1, growth recovery by OD600; active means well fitted rising curve with a large enough effect; inconclusive means small, poorly fitted or top-dose-only effect; inactive means no such curve, though single readings can be large or run the other way; further: nearly all actives have a fitted effect of over 50% in size
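A cell-based growth assay was used: compounds that relieve NS1-induced slow growth of budding yeast raise OD600. Assay medium was yeast nitrogen base with ammonium sulphate and -URA supplement, pH 6.0, with 2% galactose.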
* hit, by the source's call; ? = inconclusive; · = no result given; & = joins results of further samples; [ ] = another dose, or the depositor's remark. Unless noted, the call rests on the fitted dose curve; in most records, active means well fitted curve in the direction sought with a large enough effect; inconclusive means small, poorly fitted or top-dose-only effect, or another doubt; inactive means no such curve, though single readings can be large; an effect the other way counts as inactive or inconclusive. Potency means the concentration at half of the fitted maximal effect.

cpd	SMILES	Cruzain noTriton	LASV entry inh	MARV entry inh	SARS PLpro yeast	RE007 growth inh	StopGo reporter	Cruzain Triton	NS1 function inh
1	COc1ccc(C(=O)N(c2ccccc2)C2C=CS(=O)(=O)C2)cc1 (stereo not given)	1%	-21%	25%	3%	-7%	-6%	1.4%	-5%
2	COc1ccc(CCNC(=O)c2oc(=O)c3ccccc3c2-c2ccccc2)cc1OC	11%	0%[46.1 µM]	·	·	·	?	-3.3%	·
3	COc1ccc(S(=O)(=O)CCC(=O)N2CCN(c3ccc(C(C)=O)cc3)CC2)cc1	·	?	?	21%	5%	-7%	·	-2%
4	Cc1cnc(NC(=O)C2(c3ccccc3)CC2)s1	·	27%[46.1 µM]	19%[46.1 µM]	5%	-7%	32%[activator]	·	0%
5	CCCCNc1oc(-c2ccc(COc3ccc(OC)cc3)o2)nc1C#N	-23%	-19%[46.1 µM]	?	·	·	0%	-2.9%	·
6	CC1(C)OC(=O)N(CCc2ccccc2)C1(C)O (stereo not given)	1%	-6%	-14%	-9%	1%	-15%	0.7%	2%
7	CCCCCCSC1=C(C#N)C(=O)NC2(CCCCC2)S1	15%	8%	?	17%	3%	34%[activator]	-21%	-5%
8	CCCn1c2ccccc2c2cnn(CC(=O)NCCCN3CCCCC3)c(=O)c21	·	-3%[46.1 µM]	·	7%	-12%	?	·	3%
9	COCCn1c(=O)[nH]c2cc(C(=O)Nc3cccc(C(C)=O)c3)ccc2c1=O	-2%	?	-15%&3%[46.1 µM]	6%	-26%	-29%&-12%	-1.9%	12%
10	COc1ccc(OC(C)C(=O)NCC2CCCO2)cc1 (stereo not given)	·	-9%	25%	·	14%	-11%	·	·
11	Cc1ccc2ncc(C(=O)NCc3ccccc3Cl)c(=O)n2c1	2%	·	25%[46.1 µM]	·	·	13%	-3.6%	·
12	NC(=NCCc1ccccc1)NS(=O)(=O)c1cccs1	·	-2%[46.1 µM]	3%[46.1 µM]	-2%	-21%	1%	·	·
13	Cc1ccc2c(c1)C1CN(C)CCC1N2C(=O)/C(C#N)=C/c1ccc2c(c1)OCO2 (stereo not given)	·	1%[46.1 µM]	-2%[46.1 µM]	1%	-24%	-14%	·	7%
14	Cc1ccc(-n2c(=O)c3c4c(sc3n(Cc3ccccc3F)c2=O)CCC4)cc1C	-1%	-4%[46.1 µM]	?	·	·	-6%	-0.1%	·
15	CCN(C(=O)CSc1nc2ccccc2n1Cc1ccc(C(=O)OC)cc1)c1ccccc1	21%	?	·	·	·	-17%	-3.9%	·
16	Cn1c(=O)c(C(=O)NCCO)c(O)c2ccccc21	-2%	18%	18%	-5%	-15%	21%	-1.6%	-41%
17	COc1ccc(Cl)cc1NC(=O)Cn1nnc2sc(-c3ccccc3)cc2c1=O	-25%	7%[46.1 µM]	-19%[46.1 µM]	·	·	-20%	-7.7%	·
18	CCOc1ccc(NC(=O)C(=O)N/N=C/c2cccnc2)cc1	·	·	·	-2%	12%	-13%	·	-3%
19	C=C(C)c1cccc(C(C)(C)NC(=O)Nc2cc(C)ccc2OC)c1	-2%	-20%	?	3%	-14%	-9%	-3.8%	-1%
20	Cc1nn(C)c(Cl)c1C(=O)NCC(=O)Nc1ccc(C(C)C)cc1	·	28%[46.1 µM]	-14%[46.1 µM]	3%	-10%	-24%	·	0%
21	O=C(N/N=C/c1ccco1)c1ccc(NC(=O)c2ccc(Cl)cc2)cc1	·	-6%[46.1 µM]	0%[46.1 µM]	3%	7%	18%	·	-8%
22	Cc1onc(-c2c(F)cccc2Cl)c1C(=O)OCC(=O)c1c[nH]c2ccccc12	·	-3%	?	-3%	-3%	-18%	·	8%
23	CCOc1ccc(N=C2NC(=O)S/C2=C\c2ccc(Cl)cc2)cc1	4µM*	0%	20%[46.1 µM]	6%	-4%	10%	-2.3%	-11%
24	COC(=O)N1CCc2c(sc(NC(=O)C3COc4ccccc4O3)c2C(N)=O)C1 (stereo not given)	·	10%	?	2%	-9%	-19%	·	·

Whole records from above:
O=C(N/N=C/c1ccco1)c1ccc(NC(=O)c2ccc(Cl)cc2)cc1 in the list: Cruzain noTriton: ·; LASV entry inh: -6%[46.1 µM]; MARV entry inh: 0%[46.1 µM]; SARS PLpro yeast: 3%; RE007 growth inh: 7%; StopGo reporter: 18%; Cruzain Triton: ·; NS1 function inh: -8%
COc1ccc(Cl)cc1NC(=O)Cn1nnc2sc(-c3ccccc3)cc2c1=O in the list: Cruzain noTriton: -25%; LASV entry inh: 7%[46.1 µM]; MARV entry inh: -19%[46.1 µM]; SARS PLpro yeast: ·; RE007 growth inh: ·; StopGo reporter: -20%; Cruzain Triton: -7.7%; NS1 function inh: ·

The results go on:
cpd	SMILES	Cruzain noTriton	LASV entry inh	MARV entry inh	SARS PLpro yeast	RE007 growth inh	StopGo reporter	Cruzain Triton	NS1 function inh
25	COc1ccc(CCNC(=O)Cn2cccc2C(=O)c2ccccc2C)cc1OC	8%	11%	0%	-9%	8%	-9%	-6.2%	-9%
26	Cc1ccccc1OCC(=O)NNC(=O)C1CCN(c2ncnc3sc(C)c(C)c23)CC1	·	-18%	?	-5%	0%	?	·	·
27	Cc1ccc(C2=NS(=O)(=O)N(C)C(C(=O)NCc3ccc(F)cc3)=C2)cc1	·	·	·	-2%	0%	-4%	·	5%
28	COc1ccc(C(=O)c2oc3ccccc3c2NC(=O)c2cc(=O)c3ccc(C)cc3o2)cc1Cl	7%	11%[46.1 µM]	?	·	·	-5%	-0.1%	·
29	Cn1nc(C(=O)NNC(=O)c2cccc(Cl)c2)ccc1=O	·	14%	-4%	0%	12%	-17%	·	·
30	Cc1ccccc1-c1nc(CS(=O)(=O)CC(=O)Nc2cccc(C(F)(F)F)c2)c(C)o1	-1%	-4%[46.1 µM]	16%[46.1 µM]	·	·	-5%	-13%	·
31	COC1CCCN(C(=O)c2cccc(OC3CCN(S(=O)(=O)N(C)C)CC3)c2)C1 (stereo not given)	·	·	·	9%	8%	?	·	-15%
32	N=c1c2c3c(sc2ncn1CCN1CCOCC1)CCCC3	-7%	0%	-8%	0%	-2%	-24%	-3.8%	-6%
33	COc1ccc(-c2nn(-c3ccccc3)cc2/C=C/C(=O)NCCCn2ccnc2)cc1OC	·	?	?	0%	3%	-27%	·	2%
34	CCN(C(=O)c1cc([N+](=O)[O-])ccc1NCc1cccnc1)c1ccccc1	·	?	?	-5%	-11%	0%	·	-10%
35	COC(=O)C1(C(F)(F)F)N=C2Sc3ccccc3N2C(N2CCOCC2)=N1 (stereo not given)	3%	·	0%	-8%	0%	-6%	2.1%	-16%
36	O=C(Nc1ccc(Oc2ccccc2)cc1)c1cnc2n(c1=O)CCS2	-1%	·	·	-7%	-2%	?	1.8%	4%
37	CC(=O)NC1=C(N2CC2C)C(=O)C(NC(C)=O)=C(N2CC2C)C1=O (stereo not given)	·	-12%	-8%	·	-12%	2%	·	·
38	CCOc1ccc2nc(SCC(=O)Nc3ncccn3)[nH]c2c1	-12%	22%	-11%&-11%	-1%	-3%	6%	-0.3%	0%
39	O=C(NNc1cccc(Cl)n1)Nc1ccc(Cl)cc1	4%	10%	0%	3%	10%	32%[activator]	4.3%	-2%
40	CCOC(=O)c1c(NC(=O)c2ccc(S(=O)(=O)N3CCCC(C)C3)cc2)sc2c1CC(C)(C)NC2(C)C (stereo not given)	-4%	?	·	·	·	-21%	-0.5%	·
41	COc1ccc(C(=O)N2CCN(Cc3cc(OC)c(O)c(OC)c3)CC2)cc1OC	-1%	4%	3%	20µM*	-6%	·	10%	?
42	Cc1ccc(-c2nc(CN3C(=O)CN=C(c4ccccc4)c4cc(Cl)ccc43)c(C)o2)cc1	-8%	7%[46.1 µM]	5%[46.1 µM]	·	·	-22%	-3.3%	·
43	O=C(c1cccc(S(=O)(=O)N2CCCC2)c1)c1cccc(S(=O)(=O)N2CCCC2)c1	14%	?	?	-6%	-10%	?	-1.2%	-4%
44	Cn1c(=O)c2c(nc(CN3CCN(Cc4ccccc4)CC3)n2Cc2ccccc2)n(C)c1=O	10%	·	-3%	-6%	·	·	-2.3%	-4%
45	COc1ccc(NC(=O)c2cc(Br)ccc2Cl)c([N+](=O)[O-])c1	·	-13%	-10%[46.1 µM]	0%	2%	-11%	·	·
46	O=C(NCCN1CCOCC1)C1CCC(=O)N1C1CCCCC1 (stereo not given)	-4%	9%	18%	2%	-6%	-12%	1.6%	-6%
47	O=C(N/N=C/c1ccc(OCc2cnc(Cl)s2)cc1)c1ccncc1	·	·	·	0%	-3%	12%	·	-9%
48	CCC(C)c1ccc(O)c(NC(=O)c2cncc(Br)c2)c1 (stereo not given)	3%	5%	-8%	-12%	95%	·	-9.5%	-30%
49	COc1cc2oc(=O)c(CC(=O)N3CCCCC3)c(C)c2cc1Cl	-9%	3%[46.1 µM]	?	·	·	9%	-1.8%	·
50	COc1ccc2c(c1)c1c(c(=O)n(-c3ccccc3C)c(=O)n1CC(=O)N1CCCC1)n2C	-6%	6%[46.1 µM]	·	·	·	-4%	0.6%	·
51	N#Cc1ccc(-c2ccc(OCC3CNC(=O)O3)cc2)cc1 (stereo not given)	·	·	4%	-8%	1%	0%	·	-9%
52	COc1ccc(CNC(=O)C2CCN(S(=O)(=O)c3cccc4nsnc34)CC2)cc1	·	·	·	?	-16%	-10%	·	-2%
53	COC(=O)c1ccc(CN(C)S(=O)(=O)c2ccc(C)cc2)o1	11%	0%	-4%	0%	7%	·	-3.0%	-61%
